Kir21 inh: inhibitors of mouse Kir2.1 inward-rectifier potassium channel; 0.85% of 310,000 active; Inward rectifier potassium channel 2 (Mus musculus), P35561; HEK293-Kir2.1, FluxOR thallium flux fluorescence; hits give low values; B-score at 10 µM;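 active = fluorescence ratio B-score at or below minus 3 SD of library scores, with starting-brightness B-score within 2 SD, cut at about -4.2 in these data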;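 also: channel flux triggered by added potassium and thallium sulfate stimulus; B-score of peak minus minimum fluorescence over baseline after thallium stimulus; more negative B-score means stronger Kir2.1 block with less thallium influx; some compounds called inactive have numbers as strong as hits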
Target sequence (P35561 whole entry, looked up): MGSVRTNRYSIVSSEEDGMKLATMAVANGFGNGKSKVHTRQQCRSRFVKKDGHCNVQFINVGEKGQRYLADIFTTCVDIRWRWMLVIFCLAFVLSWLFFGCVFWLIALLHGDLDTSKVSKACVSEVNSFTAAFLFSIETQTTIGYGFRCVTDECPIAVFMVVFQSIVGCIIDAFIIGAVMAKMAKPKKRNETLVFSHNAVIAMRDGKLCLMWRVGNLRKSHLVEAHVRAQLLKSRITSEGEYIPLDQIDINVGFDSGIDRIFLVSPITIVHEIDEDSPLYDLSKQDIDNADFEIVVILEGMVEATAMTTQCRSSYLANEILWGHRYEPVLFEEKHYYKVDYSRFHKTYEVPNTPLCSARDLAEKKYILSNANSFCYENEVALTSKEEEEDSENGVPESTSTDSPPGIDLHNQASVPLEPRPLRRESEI
* = called active by the depositor.

compound	Kir21 inh
Cc1cccc(NC(=S)NNc2ncc(C(F)(F)F)cc2Cl)c1	0.1
O=C(CN1CCC(NC(=O)Nc2ccccc2)CC1)Nc1cccc([N+](=O)[O-])c1	-0.07
O=C(NCc1ccc2c(c1)OCO2)c1nc(S(=O)(=O)Cc2ccccc2)ncc1Cl	-4
Cc1ccc2ncccc2c1NC(=S)NC(=O)c1ccccc1	-0.15
COc1cc(/C=C/C(=O)O)ccc1OS(=O)(=O)c1cc(C)ccc1C	-0.32
CCc1cc(=O)n2[nH]c(C)c(-c3ccc(OC)cc3)c2n1	0.09
CC(C)CCNC(=O)C(c1ccco1)N(C(=O)Cn1nnc2ccccc21)c1ccc2c(c1)OCO2 (stereo not given)	0.97
O=C(Nc1ccccc1)c1ccccc1NC(=O)c1ccccc1C(=O)O	-2.1
CCC1Cc2c(nc(N)c3c(N)nc(N4CCOCC4)c(C#N)c23)O1 (stereo not given)	0.15
O=S(=O)(c1cccc(-n2cnnn2)c1)N1CCOCC1	0.78
O=C(Nc1ccc(Br)cc1)C1CC=CCC1C(=O)OCC1CCCO1 (stereo not given)	-0.09
CN(C)CCNCc1ccc(OC2CCCC2)cc1	-1.1
CCOc1ccccc1NC1c2ccccc2C(=O)N1c1ccc(C)cn1 (stereo not given)	-1.4
COc1cccc(CC(=O)Nc2ccc3c(c2)CCC3)c1	0.06
CCc1ccc(OCC(=O)N2CC(C(=O)OC)Oc3ccccc32)cc1 (stereo not given)	0.12
S=C(Nc1ccccc1Cl)NC1CC2CCCC(C1)N2C1CC1 (stereo not given)	-2.7
O=Cc1c(Sc2ccccc2)nc2ccccn2c1=O	-0.04
COc1ccccc1C(=O)NC(=O)COc1ccc([N+](=O)[O-])cc1	-0.07
CC(C)(C)NC(=O)CN(C(=O)CS(=O)CC(=O)Nc1ccc(F)cc1)c1ccccc1 (stereo not given)	1.3
O=C(CCSc1nc2ccccc2o1)N1CCOCC1	-0.52
CC1CCCN(C(=O)CN2CCN(C(=O)c3ccco3)CC2)C1 (stereo not given)	-0.27
CC(=O)NC(C1C(=O)CC(C)(C)CC1=O)(C(F)(F)F)C(F)(F)F	0.11
N#CC1=C(N)Oc2c(ccc3cccnc23)C1c1ccncc1 (stereo not given)	0.03
CN(C(=O)c1cccc(C#N)c1)c1nnc(C2CCOC2)s1 (stereo not given)	0.01
Cc1onc(-c2ccccc2)c1C(=O)N1CCN(S(=O)(=O)c2ccc3c(c2)OCCO3)CC1	-0.45

compound	Kir21 inh
CCOC(=O)N1CCC(N(CCN(C)C)C(=S)Nc2cccc(OC)c2)CC1	0.69
O=c1cc(N2CCc3ccccc3C2)[nH]c(=O)n1-c1ccccc1Cl	-0.38
O=c1c(F)cn(C2CCCO2)c(=O)n1Cc1c(Cl)cccc1Cl (stereo not given)	-0.33
CCOc1cccc(C(=O)N2CCCN(C)CC2)c1	1.1
C=CCOc1ccc(CNc2ccc3[nH]c(=O)[nH]c3c2)cc1OCC	1.6
Cc1ccc(-n2nc(C)cc2N)c(C)c1	0.48
CCc1ccccc1NC(=O)CCC(=O)c1cccs1	-1.8
COC(=O)c1sccc1NC(=O)Nc1cccc(OC)c1	0.05
Nc1cccc(C2=Nc3cccc4cccc(c34)N2)c1	1.3
CC1CC(C)CN(S(=O)(=O)N2CCCC(C(=O)NC3CCCCC3)C2)C1 (stereo not given)	1
Cc1ccc(OCC(=O)NC2CC(C)(C)NC(C)(C)C2)c(C)c1	1.3
O=C(O)c1ccccc1CSC1=NCCS1	-0.35
c1csc(-c2cnc3ccccc3n2)c1	-0.68
COc1cc(C=O)c(Br)cc1OCC(=O)NCc1ccccc1	0.85
N#C/C(=C\Nc1ccc(Cl)cc1)S(=O)(=O)c1ccccn1	0.87
O=C(NNC(=O)c1ccccc1-c1ccccc1C(=O)O)c1cccc([N+](=O)[O-])c1	0.68
O=c1cc(-c2ccccc2)nc2nc(-c3ccco3)[nH]n12	0.62
CC(CN1CCCC1)OC(=O)Cc1ccc(Cl)cc1 (stereo not given)	0.51
CC[C@H](C)[C@H](NC(N)=O)C(=O)NNC(=O)c1ccc(COc2cccc3cccnc23)cc1	0.57
COc1cc(OC)cc(C(=O)Nc2ccc(S(=O)(=O)Nc3cc(C)nc(C)n3)cc2)c1	-0.87
Cc1cccc(NC(=O)CSc2nsc(SCC(=O)Nc3cccc(C)c3)c2C#N)c1	0.43
COc1ccc(N2CCN(CCNC(=O)C3CC(=O)N(C4CCCC4)C3)CC2)cc1 (stereo not given)	0.55
O=c1oc2cccnc2n1CCS(=O)(=O)c1ccc(F)cc1	0.04
O=C(CC1C(=O)NCCN1Cc1ccoc1)NCCCn1ncc2ccccc21 (stereo not given)	0.27
CCc1cccc(NC(=O)CSCc2cc(=O)[nH][nH]2)c1	0.14

As entered above.
For Kir21 inh, CN(C(=O)c1cccc(C#N)c1)c1nnc(C2CCOC2)s1 (stereo not given) shows 0.01
For Kir21 inh, O=C(Nc1ccc(Br)cc1)C1CC=CCC1C(=O)OCC1CCCO1 (stereo not given) shows -0.09
For Kir21 inh, CC(=O)NC(C1C(=O)CC(C)(C)CC1=O)(C(F)(F)F)C(F)(F)F shows 0.11
For Kir21 inh, COc1ccc(N2CCN(CCNC(=O)C3CC(=O)N(C4CCCC4)C3)CC2)cc1 (stereo not given) shows 0.55
For Kir21 inh, COc1cc(/C=C/C(=O)O)ccc1OS(=O)(=O)c1cc(C)ccc1C shows -0.32
For Kir21 inh, CCc1ccccc1NC(=O)CCC(=O)c1cccs1 shows -1.8
For Kir21 inh, Cc1cccc(NC(=S)NNc2ncc(C(F)(F)F)cc2Cl)c1 shows 0.1

Following part
compound	Kir21 inh
COc1ccccc1/C=C(/C(=O)OCC(=O)N(C)Cc1ccccc1)c1ccccc1	-1.2
COc1ccc(OC)c(NC(=O)CS(=O)(=O)c2cn(CC(=O)N3CCOCC3)c3ccccc23)c1	1.4
C=CCNc1nc(N)c([N+](=O)[O-])c(NC2CCCCC2)n1	-0.65
CCOC(=O)c1[nH]c2ccccc2c1NC(=S)Nc1cccc(C)c1	-1.2
O=C(c1cc2ccccc2oc1=O)N(Cc1cccs1)Cc1cccs1	0.1
O=[N+]([O-])c1ccccc1/C=N/n1c(-c2cccnc2)n[nH]c1=S	-0.62
COc1ccc(/C([O-])=C(/C(=S)Nc2ccc(C)c(C)c2)n2c[n+](C)c3ccccc32)cc1OC	0.01
Cn1nc(CC(=O)NC2CCCCC2)c2ccccc2c1=O	-0.68
Cc1ccc(C(=O)COc2ncnc3cc(Cl)ccc23)cc1	0.52
NC(=O)C[n+]1cccc(C(N)=O)c1	-0.5
CN(CCc1ccccn1)C(=O)CCC1CCCN(C(=O)c2cccc(N(C)C)c2)C1 (stereo not given)	-0.33
CCOC(=O)c1c(C)c(C(=O)NCc2cccs2)c(C)n1CC	2.2
O=C(O)C1CSC(c2ccncc2)N1 (stereo not given)	1.1
C=C(C)c1nc2cc(OC)c(OC)cc2c(=O)o1	1.3
CCOC(=O)CSc1nc2c(c(=O)n(Cc3ccccc3Cl)c(=O)n2C)n1C	0.08
COc1cc(NC(=O)c2cccc(Cl)c2)c(OC)cc1NC(=O)CN1CCOCC1	-2.3
N#Cc1cc2cc3c(cc2nc1SCC(=O)N1CCCC1)OCCO3	-0.06
COc1ccc(C2=NS(=O)(=O)N(C)C(C(=O)N3CCN(C)CC3)=C2)cc1	-0.74
CCOC(=O)C1(CC2CCCCO2)CCN(S(=O)(=O)c2ccc(OC)cc2)CC1 (stereo not given)	0.3
C=CCN1C(=Nc2cccnc2)SCC1(O)c1ccc(C)cc1 (stereo not given)	-0.43
CCCCNC(=O)c1onc(CSc2ccccc2C)c1C(=O)O	-0.66
COc1ccc2c(c1)nc(CN1CCN(CCO)CC1)n2C	0.98
COc1ccc2[nH]cc(CCNC(=O)Nc3ccccc3C)c2c1	-0.87
COC(=O)CSc1nnc(C)n1-c1cccc(OC)c1	-1.5
CCCOC(=O)CCCN1C(=O)/C(=C2\SC(=S)N(CCCC(=O)OCCC)C2=O)SC1=S	-0.35

compound	Kir21 inh
CN(C(=O)C1CCN(S(=O)(=O)c2cccc3nonc23)CC1)C1CCCCC1	-1.4
CN(Cc1nc2c(s1)CCCC2)C(=O)CCc1nnc(-c2ccccc2)o1	-2.7
COc1ccc(CCCNC(=O)C2CCC(=O)N(Cc3ccccc3F)C2)cc1 (stereo not given)	1.1
O=C(c1cnccn1)N(c1ccccc1)C1(C(=O)NC2CCCC2)CCCCC1	1.4
COc1cc(-c2nc3n(n2)C(c2cccc(OC)c2OC)C2=C(CCCC2=O)N3)cc(OC)c1OC (stereo not given)	0.18
Cc1ccc(NC(=O)/C(=C\c2ccco2)NC(=O)c2ccco2)cc1	0.48
O=C(CSc1nc2ccc(NC(=O)c3ccccc3C(=O)O)cc2s1)Nc1c(Cl)cccc1Cl	1.2
Cc1ccc(NC(=O)CN(C)CC(=O)NC2CCCc3ccccc32)cc1 (stereo not given)	-0.1
CCOC(=O)C1(Cc2cccc(Cl)c2)CCCN(C(=O)c2ccco2)C1 (stereo not given)	-3
OCC[C@@H]1C[C@H](O)[C@@H](O)[C@@]2(OCc3ccccc32)O1	0.45
CCOc1ccc(C(=O)CSc2nnc(N)s2)cc1	1.4
CCOc1ccccc1/C=C/c1cc(C(=O)O)c2ccccc2n1	0.38
CCCCc1nc2cc(C(=O)N(C)CCc3cn[nH]c3)ccc2o1	-0.35
Nc1nnc(SCC(=O)NC2CCCC2)s1	-0.75
CC(C)N1CC(O)=C(c2nc3ccccc3c(=O)[nH]2)C1=N	0.63
CC(NC(=O)C1CCCN1S(=O)(=O)c1ccccc1)c1ccccc1 (stereo not given)	-0.69
COc1ccc(N2CCN(C(=O)COC(=O)Cc3ccc(F)cc3)CC2)cc1	0.47
O=C1CN(C(=O)CSc2nnc3ccccn23)c2ccccc2N1	-0.87
CCOc1ccc(CCNC(=O)COC(=O)c2ccc(S(C)(=O)=O)cc2)cc1OCC	-0.7
CN1C(=O)C(C)(C)c2cc(S(=O)(=O)N3CCC(C(=O)NCc4ccccc4Cl)CC3)ccc21	-1.3
COc1ccc(CCC(=O)Nc2nnc(C)s2)cc1	1.8
O=C(NCCN1CCOCC1)c1ccc([N+](=O)[O-])cc1[N+](=O)[O-]	-0.04
O=C(/C=C/c1ccco1)OCc1nnc(-c2ccc(Cl)cc2)o1	1
CCOCCCn1cnc2c(c1=O)c1nc3ccccc3nc1n2-c1ccccc1	1.4
COc1ccc(NC(=S)Nc2ccc(OC)cc2OC)c(OC)c1	0.02

compound	Kir21 inh
O=C1CCCCN1CCC(=O)N1CCCC(Nc2ccc(F)c(F)c2)C1 (stereo not given)	1.2
Cc1cc(C)c(NC(=O)c2ccc(S(=O)(=O)N(C)C)cc2)c(C)n1	-0.51
Cc1nnc(SCc2c(Cl)cccc2Cl)s1	0.09
COc1ccc(-n2c(SCc3ccccn3)nc3c(c2=O)SCC3)cc1OC	-0.56
O=C1CC(N2CCCc3ccccc32)C(=O)N1c1ccccc1 (stereo not given)	1.2
COc1ccc(C/C(C)=N\NC(=O)c2c[nH]c3ccccc23)cc1OC	-0.61
CCc1ccc(CNC(=O)Cn2nc(-c3ccc(C)cc3)ccc2=O)cc1	1.4
O=C(Nc1nc2ccc([N+](=O)[O-])cc2s1)c1c(F)cccc1F	-0.38
COc1cccc(CNc2nccs2)c1O	0.53
CC1=C(C(=O)OC(C)C)C(c2cccc([N+](=O)[O-])c2)n2c(cc(=O)[nH]c2=S)N1 (stereo not given)	-1.4
COc1ccc(C(=O)N2CCc3cc4c(cc3C2C)OCCCO4)cc1 (stereo not given)	0.84
NC(=O)c1ccc(Nc2ccc3nonc3c2[N+](=O)[O-])cc1	1.1
CC1(C)NC(=O)N(CCSc2ccc(Cl)cc2)C1=O	0.03
Cc1ccc(CNC(=O)c2cncc(Br)c2)cc1	1.4
CCOc1ccc(CNc2ncnc(N)n2)cc1	-2
COc1ccc(-n2c(SCC(=O)N(C)c3ccccc3)nc3c([nH]c4ccccc43)c2=O)cc1OC	0.07
COc1ccc(S(=O)(=O)N2CCCC(C(=O)NCc3ccccn3)C2)cc1Cl (stereo not given)	0.01
CC1=NN(/C(=N\c2nnc(C)s2)Nc2ccccc2)[C@H](c2ccc(C)cc2)S1	-0.51
CCCCCC1CCC(c2ccc(C(N)=O)cc2)CC1 (stereo not given)	-0.24
CCc1ccccc1NC(=S)N1CCC(C(=O)c2ccc(F)cc2)CC1	0.69
CCN(C(=O)COC(=O)c1[nH]c(C)c(C(C)=O)c1C)C1CCS(=O)(=O)C1 (stereo not given)	-1.8
O=C(COC(=O)CCC1CCCC1)Nc1ccccc1Sc1ccccc1	-1.3
Cc1ccccc1N1C(=O)C2ON(c3ccccc3)C(c3ccncc3)C2C1=O (stereo not given)	0.47
Cc1ccc2cc(C(c3nnnn3Cc3ccccc3)N3CCc4ccccc43)c(=O)[nH]c2c1C (stereo not given)	0.57
O=C(NCCN1CCOCC1)c1ccc(CSc2nc3ccncc3n2Cc2ccc(F)cc2)cc1	0.44
CCN(CC)c1ccc2c(Nc3ccccc3)c(C=O)c(=O)oc2c1	0.07
COc1ccc(CNC(=O)C(C)OC(=O)c2cccn2C)cc1 (stereo not given)	-1.8
O=C(N/N=C/c1cccc([N+](=O)[O-])c1)C(=O)N1CCCCCC1	-0.35

7 records picked at random from the list so far:
compound	Kir21 inh
O=C(Nc1nc2ccc([N+](=O)[O-])cc2s1)c1c(F)cccc1F	-0.38
COc1ccc(C(=O)N2CCc3cc4c(cc3C2C)OCCCO4)cc1 (stereo not given)	0.84
O=C1CC(N2CCCc3ccccc32)C(=O)N1c1ccccc1 (stereo not given)	1.2
COc1cccc(CNc2nccs2)c1O	0.53
Cc1cc(C)c(NC(=O)c2ccc(S(=O)(=O)N(C)C)cc2)c(C)n1	-0.51
COc1ccc(C/C(C)=N\NC(=O)c2c[nH]c3ccccc23)cc1OC	-0.61
CCCCCC1CCC(c2ccc(C(N)=O)cc2)CC1 (stereo not given)	-0.24

A portion of the library, and most or all hits are left out here.
